Source: PubChem
FGF22 binding: FGF22 (human) thermal shift binding | calls only at 9.99 µM | actives 1.5% (n = 340,000) | recombinant FGF22 thermal shift, SYPRO orange fluorescence; percent of sucrose octasulfate shift, DMSO zero | Q9HCT0;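 active = melting point raised past a set limit in the mean and every replicate; three in four hits are not shown here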
Target sequence (Q9HCT0 whole entry, looked up): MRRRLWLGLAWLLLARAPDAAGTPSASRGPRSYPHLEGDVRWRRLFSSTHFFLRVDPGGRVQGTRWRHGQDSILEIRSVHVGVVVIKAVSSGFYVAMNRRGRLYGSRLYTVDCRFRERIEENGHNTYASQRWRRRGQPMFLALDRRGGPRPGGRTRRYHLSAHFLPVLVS
MLL AF4-AF9 inh: MLL-AF4/AF9 protein interaction inhibition | P42568 | AlphaScreen, biotin-AF4 peptide binding to FLAG-AF9 | inhibition, % at 10 µM | actives 0.47% (n = 350,000) | AID 651704;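 active = every replicate reaching a set inhibition limit, whatever the replicate mean, cut at about 25% in these data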;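 also: 0% = plate neutral control median and 100% = total signal loss; the record names both 10 and 1 µM as test concentration; the first replicate is given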
Target sequence (P42568 whole entry, looked up): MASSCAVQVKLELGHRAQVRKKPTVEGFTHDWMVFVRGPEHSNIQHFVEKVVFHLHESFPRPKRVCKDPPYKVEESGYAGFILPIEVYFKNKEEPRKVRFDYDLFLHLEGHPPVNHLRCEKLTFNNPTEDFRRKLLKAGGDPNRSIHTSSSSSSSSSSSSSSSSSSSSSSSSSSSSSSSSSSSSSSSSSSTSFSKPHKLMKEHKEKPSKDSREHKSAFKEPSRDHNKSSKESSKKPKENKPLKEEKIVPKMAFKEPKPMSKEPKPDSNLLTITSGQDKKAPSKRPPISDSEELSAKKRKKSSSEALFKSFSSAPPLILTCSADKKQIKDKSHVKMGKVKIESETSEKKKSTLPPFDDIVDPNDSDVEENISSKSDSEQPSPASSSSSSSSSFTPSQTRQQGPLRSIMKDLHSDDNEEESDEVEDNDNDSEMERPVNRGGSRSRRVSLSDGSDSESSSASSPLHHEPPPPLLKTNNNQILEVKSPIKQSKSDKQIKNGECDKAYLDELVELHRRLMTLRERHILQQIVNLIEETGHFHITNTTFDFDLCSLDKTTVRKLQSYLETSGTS
T cruzi inh: blocks replication of Trypanosoma cruzi | T. cruzi beta-gal in NIH3T3, luminescence, 90 h | inhibition, % (concentration not given with the values) | actives 1.4% (n = 300,000) | AID 1885;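 active = mean inhibition across valid replicates above about 55%, limit read from the data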;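 also: signal also drops with host cell toxicity which is not excluded here; 0% = plate median of DMSO wells and 100% = zero luminescence signal; higher percent means less beta-gal luminescence so fewer parasites; stock transfer was 50 nL into about 50 µL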
Beta cell apopt: beta cell apoptosis inhibition | INS-1E cytokine-induced death, ATP luminescence, 48 h; percent of positive-control rescue, neutral wells zero | protection from apoptosis, % (test concentration not listed) | actives 0.8% (n = 300,000) | AID 435005;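 active = all replicates at 75% or more, or half of them and the mean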;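 also: 0% = cytokine-treated negative control wells and 100% = positive control rescue; higher means more ATP so stronger rescue from cytokine killing; wells of about 40 µL received 100 nL stock; the first replicate is given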
Ecoli rRNA inh: inhibitors of bacterial rRNA selective over humanized ribosomes; E. coli WT GFP vs humanized-ribosome RFP mutants, fluorescence, 24 h; hits give low values; DMSO median 0, no signal -100; GFP signal change (wild-type ribosome), % (no concentration beside the values); actives 1.6% (n = 350,000);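 active = significant combined selectivity score with lowered wild-type GFP, culture density cut under 30%, mutant RFP and density less affected; inactive = any of these conditions unmet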; also: one replicate is shown; some compounds called inactive have numbers as strong as hits
E coli growth: blocks Escherichia coli growth; OD600, 23 h; hits give low values; OD600 absorbance (no concentration beside the values); actives 0.21% (n = 330,000);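 active = OD600 absorbance below the run mean of sample wells minus 3.6 SD, in any replicate, cut at about 0.56 in these data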;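 also: stock transfer was 300 nL into about 60 µL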
A1 inh: inhibitors of the anti-apoptotic protein A1, read as caspase activation; actives 0.066% (n = 330,000); caspase activation, % (no concentration beside the values); AID 2462; MEF A1-2A-BIM cells, Caspase-Glo 3/7 luminescence, 3 h; percent of clofoctol response, vehicle zero;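 active = over half of replicate activation scores above 10%, or exactly half above 10 with the replicate mean above 10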;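 also: wells of about 30 µL received 50 nL stock; many hits fall short of the cut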
UCH37 DUB inh: human UCH37 deubiquitinating enzyme inhibition; Q9Y5K5; purified proteasome/UCH37, Ub-AMC cleavage fluorescence; inhibition, % (concentration not given with the values); actives 0.33% (n = 330,000); AID 588478;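 active = mean of two replicates above 20%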;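 also: 0% = compound-free wells with enzyme and 100% = wells lacking proteasome; stock transfer was 100 nL into about 20 µL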
Target sequence (Q9Y5K5 whole entry, looked up): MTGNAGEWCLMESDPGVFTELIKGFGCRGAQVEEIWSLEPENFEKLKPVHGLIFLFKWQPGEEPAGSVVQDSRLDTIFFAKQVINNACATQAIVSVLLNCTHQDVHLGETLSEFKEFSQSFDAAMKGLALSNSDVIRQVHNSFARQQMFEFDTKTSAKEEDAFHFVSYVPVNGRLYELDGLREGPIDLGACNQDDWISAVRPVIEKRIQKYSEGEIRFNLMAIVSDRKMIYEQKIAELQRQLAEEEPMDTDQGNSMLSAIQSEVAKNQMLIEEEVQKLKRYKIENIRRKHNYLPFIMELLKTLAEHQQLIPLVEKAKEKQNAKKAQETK
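system = Proteasome-associated human UCH37 deubiquitinase | amount = 0.15 nM proteasome as dispensed | medium = pH 7.4 Tris-HCl (50 mM) with ovalbumin, ATP-MgCl2, DTT | incubation = 30 min preincubation with enzyme, 25 min cleavage at room temperature | detection = AMC fluorescence 355/460 nm | read-out basis = percent inhibition | controls = no-proteasome and no-compound wells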
Ecoli rRNA inh OD600: further read-out of Ecoli rRNA inh, marked with its call; OD600 change, %; measured here: OD600 growth;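 optical density of the mix in the first replicate; 0 = DMSO median and -100 = no signal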
Ecoli rRNA inh RFP: further read-out of Ecoli rRNA inh, marked with its call; RFP signal change, %; measured here: RFP humanized mutant strains;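 first replicate; 0 = DMSO median and -100 = no signal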
* hit, by the source's call; i = inactive; nt = no result given. The list is partial; count on the stated rates, not on these rows.

SMILES | FGF22 binding | MLL AF4-AF9 inh | T cruzi inh | Beta cell apopt | Ecoli rRNA inh | Ecoli rRNA inh OD600 | Ecoli rRNA inh RFP | E coli growth | A1 inh | UCH37 DUB inh
CC1(C)NC(=O)N(CC(O)Cn2nnc3ccccc32)C1=O (stereo not given) | nt | nt | -5 | -4 | nt | nt | nt | 0.77 | 0.3 | 2.4
Cc1ccc2c(c1)c(N=NC(N)=O)c(O)n2C | i | -1.3 | -13 | nt | 4 | 3 | -5.8 | 0.67 | -0.7 | 1.9
O=C(NCc1ccco1)c1sc2cccc(F)c2c1Cl | i | 9.2 | 11 | -2 | -8 | -5 | -1.2 | 0.76 | -1.0 | 2.7
O=C(Cc1ccc([N+](=O)[O-])cc1)N/N=C/c1ccco1 | i | -1.7 | -8 | -1 | 15 | 8 | 1.5 | nt | -2.5 | nt
N#Cc1c(Cl)cccc1N1CCC(C(N)=O)CC1 | i | -3.0 | -19 | 31 | -14 | -14 | 1.6 | 0.65 | -0.3 | -24
O=C(N[C@H]1/C=C\[C@@H](O)CCCC1)OCc1ccccc1 | i | -1.6 | nt | nt | 9 | 12 | 4.9 | 0.72 | nt | 3.6
C[C@@H]1CC=C[C@H]2[C@H]1C(=O)N(Cc1ccccc1)[C@H]2c1ccc(Br)cc1F | i | 1.6 | 18 | -3 | 1 | -3 | -0.9 | nt | 0.8 | 3.2
Nn1c(SCC(=O)NC(=O)NCc2ccccc2)nnc1C1CC1 | nt | nt | -8 | nt | 9 | -2 | -1.2 | 0.68 | 1.9 | 4.5
CN(c1ccc(C(=O)NCCSC(C)(C)C)cc1)S(=O)(=O)c1ccccc1 | i | 0.1 | -7 | -3 | -23 | -42 | -6.1 | 0.7 | 0.5 | 2.4
Cc1cccc(NC(=O)C2CCCN(S(=O)(=O)c3c(C)nn(C)c3C)C2)n1 (stereo not given) | i | -0.4 | 8 | 2 | -2 | 6 | 1.4 | 0.73 | 0.0 | 2.0
O=C(Nc1ccc2c(c1)N(S(=O)(=O)c1cccs1)CCC2)c1c(F)cccc1Cl | i | 0.2 | 17 | 15 | -2 | -3 | -0.8 | 0.67 | 0.4 | 2.9
CC1=Nc2nc(N3CCCCCC3)c(C#N)c3c4c(nc(c23)N1)N(c1ccc2ccccc2c1)C(=O)C4 | nt | nt | 29 | 0 | nt | nt | nt | 0.68 | 0.5 | -20
O=[N+]([O-])c1cccc(S(=O)(=O)NCc2ccncc2)c1 | i | 0.9 | -13 | 35 | 1 | 9 | -2.9 | 0.62 | 1.0 | 1.9
CC(C)CCn1c(Oc2ccccc2Cl)nc2c1c(=O)n(C)c(=O)n2C | nt | nt | 30 | 1 | nt | nt | nt | 0.68 | 0.6 | -0.4
O=C(O)CCC(=O)N1CCc2cc(S(=O)(=O)Nc3ccc4c(c3)OCCO4)ccc21 | i | -1.0 | 8 | -4 | 7 | 2 | -1.0 | 0.75 | 0.2 | 2.3
CC(C)c1onc(C(=O)NC2CCCC2)c1[N+](=O)[O-] | nt | nt | 5 | -7 | nt | nt | nt | 0.71 | 0.0 | 1.8
COc1ccc(CC(=O)Oc2ccccc2[N+](=O)[O-])cc1 | i | -1.8 | -9 | -1 | 17 | 20 | 2.0 | 0.72 | -0.4 | 1.8
CCN(CC(=O)Nc1c(F)cccc1F)C(=O)c1cnc(C)cn1 | i | -3.8 | nt | 3 | 9 | 8 | 0.2 | 0.67 | -0.1 | -3.5
Cn1c(CN2CCOCC2)nc2cc(NC(=O)COc3ccc([N+](=O)[O-])cc3)ccc21 | i | -1.3 | 4 | nt | 5 | 7 | 0.1 | 0.7 | -0.1 | 7.3
C/C=C1\COC(C(=O)NCc2cccc(OC)c2OC)(C(F)(F)F)C=C1C=C1CCCCC1 (stereo not given) | i | 0.1 | 20 | 7 | 0 | 7 | -6.1 | nt | 1.1 | 0.0
O=C(Cc1cccc2ccccc12)NCC(=O)N1CCN(Cc2cccc(C(F)(F)F)c2)CC1 | i | 2.0 | nt | 33 | 6 | -1 | 7.4 | 0.69 | 0.1 | 2.1
O=C(C=Cc1ccccc1Cl)c1ccccc1 | i | 3.1 | nt | nt | -35 | -43 | -8.2 | 0.67 | nt | 6.4
O=C(Nc1ccc2c(c1)nc1n2CCN(Cc2ccccc2)C1)NC1CCCCC1 | nt | nt | 3 | 4 | nt | nt | nt | 0.68 | 0.3 | -236
Cc1ccc(C(=O)N2CCN(Cc3ccc4c(c3)OCO4)CC2)c(Cl)c1 | i | -0.9 | -21 | 11 | -9 | -12 | 2.4 | 0.68 | 1.2 | -2.3
COCCOC(=O)C1=C(C)N=C2SCCC(=O)N2C1c1ccc(C(=O)OC)cc1 (stereo not given) | nt | nt | -10 | -6 | nt | nt | nt | 0.66 | 0.4 | 7.0
CCCOc1cccc(-c2nnc(NC(=O)c3ccco3)s2)c1 | i | -1.5 | -5 | -3 | 6 | 4 | -2.1 | 0.71 | 0.3 | -15
Cc1ccc(S(=O)(=O)N2CCN(c3ccc([N+](=O)[O-])cn3)CC2)cc1 | i | -2.1 | -7 | 5 | 12 | 5 | 0.7 | 0.66 | 0.0 | 0.6
CN(c1ccccc1)S(=O)(=O)c1cccc(NC(=O)CCNC(=O)c2ccc([N+](=O)[O-])cc2)c1 | i | 3.1 | nt | -4 | -17* | -10* | 5.2* | 0.68 | 1.1 | 2.1
CCOC(=O)C1CCN(S(=O)(=O)NC[C@H]2O[C@@H](n3cnc4c(N)ncnc43)[C@H](O)[C@@H]2O)C1 (stereo not given in full) | i | -0.5 | nt | nt | 7 | 11 | 0.5 | 0.66 | nt | 1.6
COc1ccc(Nc2cc(C)nc(N)n2)cc1 | i | -0.5 | -10 | -6 | 3 | 10 | -2.3 | nt | -0.6 | nt
CCOc1ccc(S(=O)(=O)Nc2cccc(N(C)S(C)(=O)=O)c2)cc1 | nt | nt | -18 | 16 | nt | nt | nt | 0.78 | 0.4 | 1.3
Cc1ccc(C(c2cc(Br)ccc2O)N2CCSCC2)cc1 (stereo not given) | i | -1.3 | 24 | -6 | 5 | 1 | -13 | 0.67 | -0.3 | 1.1
CC(=O)c1cccc(NC(=O)CN2C(=O)COc3ccc(S(=O)(=O)N4CCOCC4)cc32)c1 | i | -1.5 | -5 | -4 | 2 | 21 | 2.6 | 0.71 | 0.9 | 3.3
CCOc1ccc(-c2nnc(-c3ccccc3)o2)cc1 | nt | nt | 7 | 2 | nt | nt | nt | 0.74 | -0.1 | -6.0
Fc1ccccc1-c1nc(-c2cnccc2C(F)(F)F)no1 | i | -11 | 10 | -13 | 0 | 5 | -1.3 | 0.71 | -1.4 | 6.2
CCCC(=O)N1CCN(c2ccc(NC(=O)c3cc4ccccc4o3)cc2Cl)CC1 | nt | nt | 48 | 68 | nt | nt | nt | 0.73 | -0.6 | -2.4
CC(C)Oc1cccc(C(=O)NC(=S)Nc2ccc(Cl)c(C(=O)O)c2)c1 | nt | nt | 1 | -3 | nt | nt | nt | 0.74 | -0.1 | 5.9
COc1cc(CNc2nc3ccccc3[nH]2)cc(OC)c1OC | nt | nt | -2 | -3 | nt | nt | nt | 0.71 | 1.3 | 5.0
NC(=O)c1c(NC(=O)c2ccc(S(=O)(=O)N3CCOCC3)cc2)sc2c1CCCCC2 | i | 1.8 | -2 | 3 | 10 | 0 | -1.8 | 0.67 | 0.1 | -20
Cc1ccc(NC(=O)c2ccc(COc3ccccc3[N+](=O)[O-])o2)nc1 | i | -1.1 | nt | -2 | -16 | -28 | 0.1 | 0.67 | -0.2 | 6.1
CCn1ccnc1CN1CCCC(C(=O)c2ccc3cc(OC)ccc3c2)C1 (stereo not given) | i | 15 | 4 | 11 | -33* | -13* | -2.4* | 0.69 | 0.6 | -196
O=C(CSc1nnc(C2CCCCC2)o1)N1CCCCC1 | nt | nt | -1 | 2 | nt | nt | nt | 0.69 | 0.2 | 4.7
O=C1c2ccccc2C(=O)c2c1cccc2N1CCN(C/C=C/c2ccccc2)CC1 | nt | 7.1 | 14 | 5 | -2 | -4 | 5.0 | 0.68 | 0.9 | 5.3
CN1C2C=C3C(C#N)=C(N)C(C#N)(C#N)[C@@H](c4cccs4)C3C1CC2 (stereo not given in full) | nt | nt | 29 | 11 | nt | nt | nt | 0.78 | 1.2 | -23
O=C(c1ccc(Cl)cc1Cl)N1CCOCC1 | i | -2.9 | nt | nt | 2 | 6 | -0.3 | 0.67 | nt | 0.2
CCOC(=O)c1c(NC(=O)c2ccnn2C)sc(C)c1C | nt | nt | -17 | 1 | nt | nt | nt | 0.75 | -0.1 | -16
Cc1cc(C)c(C(=O)/C=C/c2cccs2)c(=O)[nH]1 | i | 0.1 | -23 | -6 | -1 | 4 | 1.1 | 0.67 | 0.2 | 9.9
O=C(c1ccco1)N1CCN(Cc2cn[nH]c2-c2cccc3ccccc23)CC1 | i | 7.6 | 12 | -4 | -10 | -1 | -2.2 | 0.66 | 1.3 | 4.6
NNC(=O)COc1cccc(Oc2ccccc2)c1 | i | -0.9 | -8 | 0 | -10 | -14 | -1.3 | 0.69 | 1.0 | 2.4
CSc1ccc(C(=S)N2CCN(CCO)CC2)cc1 | nt | nt | 0 | -1 | nt | nt | nt | 0.66 | 0.4 | 3.6

Following part.
SMILES | FGF22 binding | MLL AF4-AF9 inh | T cruzi inh | Beta cell apopt | Ecoli rRNA inh | Ecoli rRNA inh OD600 | Ecoli rRNA inh RFP | E coli growth | A1 inh | UCH37 DUB inh
CCCC(=O)N1CCN(c2ccc(NC(=O)c3cc4ccccc4o3)cc2)CC1 | nt | nt | nt | 6 | nt | nt | nt | 0.8 | 0.1 | 7.5
C=C1CCN([C@H](C(=O)NCc2ccccc2)C(C)C)S(=O)(=O)c2ccccc21 | i | 4.2 | -2 | -4 | 8 | 7 | 6.3 | nt | 1.5 | -0.5
COc1ccc2c(/C=C/c3cc[n+](C)cc3)c[nH]c2c1 | i | 10 | 54 | 59 | 50 | -9 | 67 | 0.63 | 0.6 | 12
Cc1cc(C)nc(NC2=NCC(=O)N2c2ccc(Cl)cc2)n1 | nt | nt | nt | -7 | nt | nt | nt | 0.7 | 0.5 | -0.6
COc1cccc2cc(C(=O)C3=C(O)C(=O)N(CCN(C)C)C3c3ccc(Cl)cc3)oc12 (stereo not given) | i | 3.2 | -4 | -3 | -14 | -1 | 7.6 | 0.66 | 0.1 | 7.4
Cc1nnc(SCC(=O)NNC(=O)c2ccc(Cl)cc2)n1CC1CCCO1 (stereo not given) | i | -0.9 | 3 | 4 | 1 | 9 | -2.4 | 0.71 | -0.2 | 5.6
CN(C)CCN1C(=O)C(=O)/C(=C(/O)c2ccc(S(=O)(=O)N3CCOCC3)cc2)C1c1ccccc1 (stereo not given) | i | -16 | -29 | 0 | 11 | 17 | 2.0 | 0.66 | 0.1 | 11
CCOc1ccc(Cn2c3ccc(OC)cc3c3nc4ccccc4nc32)cc1OC | i | 1.3 | -7 | 35 | 18 | 18 | 24 | 0.62 | 0.4 | 9.7
